RN4220 kill – kills Staphylococcus aureus RN4220. inhibition, % (test concentration not listed). S. aureus RN4220 growth, OD600, 16 h. AID 1259311. hit rate 0.33% among 330,000;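 active means z-score of -3 or lower and OD600 up to 0.18 on both plates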;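 further: plate controls were untreated cells for no effect and reference antibiotic for full effect; stock transfer was 100 nL into about 80 µL; one replicate is shown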
PrP UTR inh – suppresses PrP 5' UTR mRNA reporter expression | inhibition, % (no concentration beside the values) | hit rate 0.35% among 340,000 | cell-based PrP 5' UTR mRNA reporter, plate reader;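 active means every replicate at 50% or more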;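 further: 0 = median of the neutral control wells; tested in H4 reporter cells; numbers are from one replicate; inactives centre near -14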
Sa ugtP lethal – kills S. aureus RN4220 lacking UgtP; S. aureus RN4220 ugtP deletion, OD600 growth, 16 h; some inactives read as strong as hits; growth inhibition, % (no concentration beside the values); hit rate 0.54% among 330,000;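 active means z-score under -3 and OD600 up to 0.15 on both plates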;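 further: plate controls were untreated wells for no effect and antibiotic for full effect; wells of about 80 µL received 100 nL stock; the first replicate is given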
BJeLR lethal – kills HRASV12-expressing BJeLR cells. BJeLR (HRASV12) viability, CellTiter-Glo ATP luminescence, 48 h; reference of the scale not given here. hit rate 0.17% among 300,000. AID 1554. inhibition, % (no concentration beside the values);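 active means replicate mean above 50%; inconclusive means above 50% but judged a plate artefact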;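 further: 50 nL library stock added to about 25 µL; numbers are from one replicate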
Bead autofluor – compound fluorescence in toxin protease inhibitor counterscreen. compound autofluorescence counterscreen, microsphere flow cytometry; stronger effect = higher value. fluorescence intensity (no concentration beside the values). hit rate 3.1% among 360,000;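 active means at least 3 SD above the mean of all compounds, about 16000 in these data; inconclusive means too few beads counted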;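 further: 100 nL of 1 mM stock went into each well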
Mtb hypoxia rep – Mtb hypoxia fluorescent reporter inhibition; M. tuberculosis hypoxia-regulated fluorescent reporter, fluorescence; fluorescence inhibition, % (test concentration not listed); hit rate 0.1% among 300,000; AID 1159583;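 active means 35 to 45% if threefold the growth effect, above 45% if 1.5-fold the growth effect; inactive means the rest, general growth blockers included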;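 further: wells of about 50 µL received 100 nL stock; 0% = vehicle wells and 100% = reference inhibitor wells; whole bacteria with a GFP reporter of the hypoxia response; strong numbers were not always called active; many hits fall short of the cut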
Mtb hypoxia rep growth – further read-out of Mtb hypoxia rep, marked with its call; growth inhibition, %; measured here: M. tuberculosis growth (absorbance);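 0% = vehicle and 100% = reference antibiotic; read after six days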
* = called active by the depositor.

What do the screens show for `O=C(/C=C1\NCC2c3ccccc3CCN2C1=O)c1ccccc1` (configuration not stated)?
RN4220 kill: 4.2; PrP UTR inh: -67; Sa ugtP lethal: 4; BJeLR lethal: 0; Bead autofluor: 3229; Mtb hypoxia rep: 8; Mtb hypoxia rep growth: -1

Results for Cn1c(=O)n(C)c2cc(CNc3ccc(N4CCOCC4)c(C(=O)O)c3)ccc21 ?
RN4220 kill: 0.4; PrP UTR inh: -24; Sa ugtP lethal: 3; BJeLR lethal: 4; Mtb hypoxia rep: 8; Mtb hypoxia rep growth: 10

How did CCCNc1c(NS(=O)(=O)c2ccc(C(C)(C)C)cc2)c(=O)oc2ccccc12 do in these assays?
RN4220 kill: 5.8; PrP UTR inh: -4; Sa ugtP lethal: 6; BJeLR lethal: 10; Bead autofluor: 6375; Mtb hypoxia rep: -2; Mtb hypoxia rep growth: 5

How did Cc1cc(C)n2nc(SCC(=O)Nc3ccc(F)cc3)nc2n1 do in these assays?
RN4220 kill: 6.0; PrP UTR inh: -13; Sa ugtP lethal: 4; BJeLR lethal: -6; Bead autofluor: 4349

Results for CCOC(=O)C(C(=O)N(C)C)c1ncc(C(F)(F)F)cc1Cl (configuration not stated) ?
RN4220 kill: 4.9; PrP UTR inh: -5; Sa ugtP lethal: 11; BJeLR lethal: 1; Bead autofluor: 4287; Mtb hypoxia rep: 10; Mtb hypoxia rep growth: 14

What do the screens show for `Cn1nnc(NC(=O)c2ccc(Br)o2)n1`?
RN4220 kill: 3.5; PrP UTR inh: -8; Sa ugtP lethal: 1; BJeLR lethal: -8; Bead autofluor: 5774; Mtb hypoxia rep: 5; Mtb hypoxia rep growth: -3

Results for CN(CC(=O)Nc1ccc(Cl)cc1)C(=O)c1cccc(S(=O)(=O)NCc2ccccc2)c1 ?
RN4220 kill: 4.0; PrP UTR inh: -3; Sa ugtP lethal: 11; BJeLR lethal: 4; Bead autofluor: inconclusive; Mtb hypoxia rep: 6; Mtb hypoxia rep growth: 5

How did C/C(=N\NC(=O)C1COc2ccccc2O1)c1ccc(C)o1 (configuration not stated) do in these assays?
PrP UTR inh: -20; BJeLR lethal: -18; Bead autofluor: 3311

What do the screens show for `NC(=O)C1=C[C@H](c2csc3ccccc23)C[C@H](OCCCCO)O1`?
RN4220 kill: -10; PrP UTR inh: -10; Sa ugtP lethal: -2; BJeLR lethal: 1; Bead autofluor: 4005; Mtb hypoxia rep: 15; Mtb hypoxia rep growth: 6

Results for CCOc1ccccc1NC(=S)NCc1ccco1 ?
RN4220 kill: 4.6; PrP UTR inh: -9; Sa ugtP lethal: 0; BJeLR lethal: 3; Bead autofluor: 22578*; Mtb hypoxia rep: 5; Mtb hypoxia rep growth: 4

What do the screens show for `CC(=O)NCCNC(=O)C1CCC(CNc2nc(=S)[nH]c3ccccc23)CC1` (configuration not stated)?
RN4220 kill: 5.0; PrP UTR inh: 6; Sa ugtP lethal: -1; BJeLR lethal: -4; Bead autofluor: 3098; Mtb hypoxia rep: 20; Mtb hypoxia rep growth: 16

What do the screens show for `CCOc1ccc(C2C(C#N)=C(N)N(c3sc4c(c3C#N)CCCC4)C3=C2C(=O)CCC3)cc1` (configuration not stated)?
RN4220 kill: -5.1; PrP UTR inh: -7; Sa ugtP lethal: -6; BJeLR lethal: -4; Bead autofluor: 3546; Mtb hypoxia rep: 4; Mtb hypoxia rep growth: 8

Results for Cc1cccc(NC(=O)CSc2nnc(-c3cnccn3)n2Cc2ccco2)c1 ?
RN4220 kill: 4.2; PrP UTR inh: -23; Sa ugtP lethal: -2; BJeLR lethal: -1; Bead autofluor: 23296*; Mtb hypoxia rep: -9; Mtb hypoxia rep growth: 4

Results for N#Cc1ccc(/C=C(\C(=O)C(=O)O)c2ccc3ccccc3n2)cc1 ?
RN4220 kill: 6.9; PrP UTR inh: -96; Sa ugtP lethal: 6; BJeLR lethal: -6; Bead autofluor: 3514; Mtb hypoxia rep: 2; Mtb hypoxia rep growth: -5

Results for CCOC(=O)NN=C(CCC(=O)O)c1cccs1 ?
RN4220 kill: 5.6; Sa ugtP lethal: 4; Mtb hypoxia rep: 8; Mtb hypoxia rep growth: 7

What do the screens show for `CSc1nc(N)c(C#N)c(-c2ccc(Cl)cc2)c1C#N`?
RN4220 kill: 1.6; PrP UTR inh: 6; Sa ugtP lethal: 19; BJeLR lethal: 1; Bead autofluor: 3547

How did CC(C)COc1ccc(C(=O)OCCN2CCOCC2)cc1 do in these assays?
RN4220 kill: 1.4; PrP UTR inh: 17; Sa ugtP lethal: 3; BJeLR lethal: -3; Bead autofluor: 2498

What do the screens show for `CC(=O)c1c(C)[nH]c(C(=O)OCC(=O)c2c[nH]c3ccccc23)c1C`?
RN4220 kill: 2.8; PrP UTR inh: -57; Sa ugtP lethal: -11; Bead autofluor: 3536; Mtb hypoxia rep: 4; Mtb hypoxia rep growth: 5

What do the screens show for `Cc1nn(-c2ccccc2)c(C)c1NC(=O)COC(=O)c1cc(Br)ccc1O`?
RN4220 kill: 2.2; PrP UTR inh: 0; Sa ugtP lethal: 3; BJeLR lethal: -10; Bead autofluor: inconclusive; Mtb hypoxia rep: -2; Mtb hypoxia rep growth: -5

What do the screens show for `Cn1c(CNc2ccccc2O)nc2ccccc21`?
RN4220 kill: -7.2; PrP UTR inh: -28; Sa ugtP lethal: -8; BJeLR lethal: -2; Bead autofluor: 5212

Results for CCOC(=O)NN=C(C)c1ccc(Br)cc1 ?
RN4220 kill: 6.9; Sa ugtP lethal: 4; Mtb hypoxia rep: 5; Mtb hypoxia rep growth: 11

How did O=C(N/N=C\c1ccc(-c2ccccc2[N+](=O)[O-])o1)C1COc2ccccc2O1 (configuration not stated) do in these assays?
PrP UTR inh: -13; BJeLR lethal: -17; Bead autofluor: 2591

How did Cn1c(=O)c2cc(NC(=O)c3ccccc3Cl)c(=O)oc2n(C)c1=O do in these assays?
RN4220 kill: -2.1; PrP UTR inh: -1; Sa ugtP lethal: 0; BJeLR lethal: 0; Bead autofluor: 9539; Mtb hypoxia rep: -1; Mtb hypoxia rep growth: 2

What do the screens show for `NC(=O)c1ccsc1NC(=O)CSc1n[nH]c(N)n1`?
RN4220 kill: 0.9; Sa ugtP lethal: -1; Bead autofluor: 3459; Mtb hypoxia rep: -4; Mtb hypoxia rep growth: 10

What do the screens show for `CN(C)CCCN(C(=O)c1ccc2ccccc2c1)c1nc2cc3c(cc2s1)OCO3`?
RN4220 kill: -3.7; PrP UTR inh: 3; Sa ugtP lethal: -4; BJeLR lethal: -3; Bead autofluor: 6158; Mtb hypoxia rep: 5; Mtb hypoxia rep growth: -1

What do the screens show for `CCOC(=O)C1=NOC(CNc2ncc(C(F)(F)F)cc2Cl)C1` (configuration not stated)?
RN4220 kill: 4.0; PrP UTR inh: -5; Sa ugtP lethal: 2; BJeLR lethal: -6; Bead autofluor: 4777; Mtb hypoxia rep: -2; Mtb hypoxia rep growth: 3

What do the screens show for `CC(=O)c1cccc(NC(=O)N2CCCC2C(=O)Nc2ccc3c(c2)OCCO3)c1` (configuration not stated)?
RN4220 kill: 2.7; PrP UTR inh: -26; Sa ugtP lethal: 2; BJeLR lethal: -5; Bead autofluor: 2584; Mtb hypoxia rep: -14; Mtb hypoxia rep growth: 3

Results for CCNC(=O)NC(=O)COC(=O)C1CSC2(C)CCC(=O)N12 (configuration not stated) ?
RN4220 kill: 4.0; PrP UTR inh: -15; Sa ugtP lethal: 10; BJeLR lethal: 3; Bead autofluor: 2546; Mtb hypoxia rep: -5; Mtb hypoxia rep growth: -6

What do the screens show for `Cc1cc(C)cc(NS(=O)(=O)c2c(C)[nH]c(=O)[nH]c2=O)c1`?
RN4220 kill: 2.3; PrP UTR inh: -13; Sa ugtP lethal: 3; BJeLR lethal: 7; Bead autofluor: 3632; Mtb hypoxia rep: 4; Mtb hypoxia rep growth: 6

How did Cc1nc2ccccc2c2c1C(=O)N(C1CCCCCCC1)C2=O do in these assays?
RN4220 kill: 0.3; PrP UTR inh: -24; Sa ugtP lethal: -12; BJeLR lethal: 3; Bead autofluor: inconclusive; Mtb hypoxia rep: 16; Mtb hypoxia rep growth: 13

What do the screens show for `O=C(c1cccc(S(=O)(=O)N2CCCC2)c1)N1CCN(Cc2ccccc2)CC1`?
RN4220 kill: 3.7; PrP UTR inh: -3; Sa ugtP lethal: 6; Bead autofluor: 6322; Mtb hypoxia rep: 22; Mtb hypoxia rep growth: 29

What do the screens show for `COCCCNC(=O)CS(=O)Cc1nc(-c2ccccc2C)oc1C` (configuration not stated)?
RN4220 kill: 5.9; PrP UTR inh: -8; Sa ugtP lethal: 0; BJeLR lethal: 5; Bead autofluor: 6775; Mtb hypoxia rep: -3; Mtb hypoxia rep growth: -1

What do the screens show for `Cc1ccnc(NC(=O)C2COc3ccccc3O2)c1` (configuration not stated)?
RN4220 kill: 3.9; PrP UTR inh: -70; Sa ugtP lethal: 6; BJeLR lethal: 0; Bead autofluor: 2202; Mtb hypoxia rep: 13; Mtb hypoxia rep growth: -1

Results for CCOC(=O)c1c(-c2ccc(C)cc2)csc1NC(=O)c1cc2ccccc2oc1=O ?
RN4220 kill: 9.2; PrP UTR inh: -28; Sa ugtP lethal: 8; BJeLR lethal: -8; Bead autofluor: inconclusive; Mtb hypoxia rep: -19; Mtb hypoxia rep growth: -5

Results for CCCN(CCC)CCCNC(=O)C(NS(=O)(=O)c1ccc2c(c1)CCC(=O)N2)c1ccccc1 (configuration not stated) ?
RN4220 kill: -2.0; PrP UTR inh: -7; Sa ugtP lethal: 5; BJeLR lethal: -4; Bead autofluor: 4325; Mtb hypoxia rep: 7; Mtb hypoxia rep growth: 9

What do the screens show for `NC(=NOC(=O)c1cccc([N+](=O)[O-])c1)c1ccccn1`?
RN4220 kill: 7.5; Sa ugtP lethal: 9; Mtb hypoxia rep: -6; Mtb hypoxia rep growth: -12

What do the screens show for `COc1ccc(-c2nc(NN=C(C)c3ccc(O)cc3)c3ccccc3n2)cc1`?
RN4220 kill: 72; Sa ugtP lethal: 79; Mtb hypoxia rep: 5; Mtb hypoxia rep growth: 1

What do the screens show for `Nn1c(SCC(=O)Nc2ccc3c(c2)OCO3)nnc1C1CCCCC1`?
RN4220 kill: 6.3; PrP UTR inh: -23; Sa ugtP lethal: 5; BJeLR lethal: -4; Bead autofluor: 2563; Mtb hypoxia rep: 7; Mtb hypoxia rep growth: 1

What do the screens show for `O=C(COC(=O)[C@@H]1CC(O)CN1S(=O)(=O)c1ccc2c(c1)OCCO2)Nc1cc(F)ccc1F` (some centres not stated)?
RN4220 kill: 6.1; PrP UTR inh: -22; Sa ugtP lethal: 4; Bead autofluor: 5575; Mtb hypoxia rep: 4; Mtb hypoxia rep growth: 4

How did COc1ccccc1C(=O)Nc1nnc(C)s1 do in these assays?
RN4220 kill: 18; PrP UTR inh: -44; Sa ugtP lethal: 0; BJeLR lethal: -19; Bead autofluor: 11137; Mtb hypoxia rep: 3; Mtb hypoxia rep growth: 0

Results for CC(C)c1nnc(NC(=O)CS(=O)(=O)Cc2ccccc2)s1 ?
RN4220 kill: 3.8; PrP UTR inh: -9; Sa ugtP lethal: 5; BJeLR lethal: -9; Bead autofluor: 2193; Mtb hypoxia rep: 16; Mtb hypoxia rep growth: -1

What do the screens show for `CCOC(=O)C1CCN(S(=O)(=O)c2cnc[nH]2)CC1`?
RN4220 kill: 2.3; PrP UTR inh: 3; Sa ugtP lethal: 2; BJeLR lethal: 2; Bead autofluor: 4379

What do the screens show for `CN(C)CCCn1c(SCCN2C(=O)c3ccccc3C2=O)nc2ccccc2c1=O`?
RN4220 kill: 14; PrP UTR inh: -18; Sa ugtP lethal: 5; BJeLR lethal: -21; Bead autofluor: 4307; Mtb hypoxia rep: 6; Mtb hypoxia rep growth: 7

A run of entries from further up, for reference:
Results for CC(C)c1nnc(NC(=O)CS(=O)(=O)Cc2ccccc2)s1 ?
RN4220 kill: 3.8; PrP UTR inh: -9; Sa ugtP lethal: 5; BJeLR lethal: -9; Bead autofluor: 2193; Mtb hypoxia rep: 16; Mtb hypoxia rep growth: -1

What do the screens show for `CCOC(=O)C1CCN(S(=O)(=O)c2cnc[nH]2)CC1`?
RN4220 kill: 2.3; PrP UTR inh: 3; Sa ugtP lethal: 2; BJeLR lethal: 2; Bead autofluor: 4379

What do the screens show for `CN(C)CCCn1c(SCCN2C(=O)c3ccccc3C2=O)nc2ccccc2c1=O`?
RN4220 kill: 14; PrP UTR inh: -18; Sa ugtP lethal: 5; BJeLR lethal: -21; Bead autofluor: 4307; Mtb hypoxia rep: 6; Mtb hypoxia rep growth: 7

Compounds were not picked by outcome; overall some 4% were active at least once.
